Assay outcomes as filed in PubChem BioAssay.
miR-21 reporter: qHTS Assay for Modulators of miRNAs and/orActivators of miR-21. HeLa miR-21 FLuc reporter, luciferase, 48 h. Potency, µM (titrated, usually from 38.3 µM), without a hit: at the highest dose reporter change, positive = more light. 340,000 tested, under 10 active. AID 2288, 2010; active = well fitted rising curve with a large enough effect; inconclusive = small, poorly fitted or top-dose-only effect; inactive = no such curve, though single readings can be large or run the other way;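 further: % of control where 0% means no effect; miR-21 action dims this reporter so a rising signal means less miR-21 action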
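Using DMEM plus 10% FBS, HeLa miR-21-FLuc cells are incubated with test compounds (final up to about 40uM) for 48 hours; firefly luciferase signal is then imaged following reagent-mediated lysis.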
Rango release inh: qHTS Assay for Inhibitors of RanGTP induced Rango (Ran-regulated importin-beta cargo) - Importin beta complex dissociation | Biochemical FRET Rango-importin beta, RanGTP-induced dissociation | Potency, µM (doses to about 46.1 µM), inactives show top-dose activity change, negative = inhibition | 340,000 tested, 0.071% active | AID 540253, 2011; active means falling FRET ratio curve, often poorly fitted, with flat reads before Ran was added; inconclusive means other falling curves, or compound fluorescence or quenching; inactive means flat or rising ratio curve;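 further: potency means the concentration at half of the fitted maximal effect; % of control where 0% means no effect; nearly all actives have a fitted effect of over 45% in size; -100% = wells without RanGTP and RCC1; the record marks most hits as doubtful in a second field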
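Compounds preincubate 5 min with complex of recombinant Rango and importin beta in PBS with 1 mM DTT. Ran (0.6 uM) loaded with 2 mM GTP plus 0.2 uM RCC1 starts dissociation; FRET is recorded 45 min later.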
Rango complex inh: qHTS Assay for Inhibitors of Rango (Ran-regulated importin-beta cargo) - Importin beta complex formation; Importin subunit beta-1 (Homo sapiens), Q14974; Rango CFP/YFP FRET sensor + importin beta, 45 min; Potency, µM (series often up to 92.2 µM), for inactives: at the highest dose inhibition of complex formation; 340,000 tested, 0.031% active; active = rising FRET ratio curve, often small or poorly fitted; inconclusive = mostly compound fluorescence or quenching in the first reads; inactive = flat curves in all reads;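 further: potency means the concentration at half of the fitted maximal effect; 0% = DMSO wells and 100% = buffer wells lacking importin beta; nearly all actives have a fitted effect of over 15% in size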
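Inhibition scored from the CFP 486 nm/YFP 530 nm FRET ratio 45 min after adding 0.125 microM importin beta to 50 nM Rango biosensor preincubated 5 min with compound (room temperature, PBS with DTT, Tween-20, BSA). No-importin wells as positive control.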
GLA inh pH 4.5: qHTS Assay for Inhibitors of Human alpha-Galactosidase at pH 4.5; AID 1467, 2008; purified enzyme, 4-MU-alpha-Gal fluorescence, pH 4.5; activity change, negative = inhibition, % at 105 µM; Alpha-galactosidase A (Homo sapiens), P06280; 230,000 tested, under 10 active; inconclusive = small, poorly fitted or top-dose-only inhibition, or a rising curve; inactive = flat fitted curve, though single readings scatter; no compound was filed as active;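 further: 0% = full activity with enzyme and -100% = basal without enzyme; dose as in the result columns while the protocol names 77 µM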
Target sequence (P06280 whole entry, looked up): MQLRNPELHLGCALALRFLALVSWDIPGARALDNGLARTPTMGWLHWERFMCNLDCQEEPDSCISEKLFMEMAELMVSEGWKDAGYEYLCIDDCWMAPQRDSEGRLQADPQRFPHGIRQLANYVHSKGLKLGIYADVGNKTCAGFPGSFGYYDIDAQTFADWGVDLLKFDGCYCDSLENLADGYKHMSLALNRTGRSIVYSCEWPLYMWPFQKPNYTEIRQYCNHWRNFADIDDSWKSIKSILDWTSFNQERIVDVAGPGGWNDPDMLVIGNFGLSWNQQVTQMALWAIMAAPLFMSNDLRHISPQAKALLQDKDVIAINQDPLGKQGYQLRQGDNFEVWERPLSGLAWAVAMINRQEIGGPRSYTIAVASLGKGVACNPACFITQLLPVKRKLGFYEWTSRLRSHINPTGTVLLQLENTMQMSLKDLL
* hit, by the source's call; ? = inconclusive; nt = no result given. These rows are one share of the data, so the mix of outcomes need not match the whole.

SMILES	miR-21 reporter	Rango release inh	Rango complex inh	GLA inh pH 4.5
COc1cc(SC)ccc1C(=O)Nc1nccs1	7%	2%	0.7%	-9
O=c1c(CO)cc(CO)cc(CO)c1O	0%	-3%	?	-9
CCN(CC)C(=O)CSc1nc(O)cc(=O)n1CC	0%	1%	1.6%	-9
COc1ccc(-c2nnc3sc(-c4ccccn4)nn23)cc1	-33%	nt	nt	7
CCCc1nnc(NC(=O)C2CC(=O)N(C3CCCC3)C2)s1 (stereo not drawn)	-1%	-11%	-6.6%	nt
COc1ccccc1C(=O)Nc1ccc(OCC(=O)N2CC(C)CC(C)C2)cc1 (stereo not drawn)	nt	-9%	0.7%	nt
COc1ccc(C(=O)C2CCCN(C(=O)c3cc(C)nc(C)n3)C2)cc1OC (stereo not drawn)	-14%	7%	-1.6%	1
c1coc(Cn2c(SCc3nc4ccccc4[nH]3)nnc2-c2cnccn2)c1	-5%	-14%	-0.9%	-10
O=C(NCCC1=CCCCC1)c1ccc(Cl)c([N+](=O)[O-])c1	-29%	4%	?	5
COc1ccc(S(=O)(=O)N2CCN(C)CC2)cc1NC(=O)c1ccccc1	7%	1%	0.1%	nt
O=C(c1ccco1)N1CCN(C(=O)c2ccc(COc3ccc(F)cc3)o2)CC1	2%	-1%	0.4%	-1
CCOC(=O)N1CCN(CC(O)COC2CC(C)CCC2C(C)C)CC1 (stereo not drawn)	-2%	1%	-1.3%	-6
ON=C(CCc1ccccc1)CCc1ccccc1	nt	7%	0.4%	nt
O=[N+]([O-])c1ccccc1S(=O)(=O)Nc1cccc(-c2ccc(N3CCCC3)nn2)c1	nt	1%	6.5%	nt
CCN1CCN(C(=O)c2c(-c3c(F)cccc3Cl)noc2C)CC1	1%	-1%	-0.8%	-3
CC(=O)C[C@@H](O)CC(=O)[C@H]1OC(=O)[C@@H](C)C/C=C\Cc2ccccc21	nt	?	?	nt
O=C(O)c1cc(S(=O)(=O)NCCN2CCNC2=O)ccc1O	-12%	1%	-2.8%	nt
Cc1cnc(CNC(=O)CC2C(=O)NCCN2Cc2ccccc2F)cn1 (stereo not drawn)	-3%	-17%	?	nt
CCCN1CCC(NC(=O)CCc2nnc(-c3ccccc3)o2)CC1	-5%	-19%	-4.5%	6
Cc1ccccc1-n1c(SCC(=O)NC2CCS(=O)(=O)C2)nc2ccccc2c1=O (stereo not drawn)	nt	-10%	0.0%	nt
O=C(NN=C1CCN(Cc2ccccc2)CC1)c1ccccc1O	-1%	-18%	-0.3%	-2
O=C1N/C(=N\c2ccccn2)SC1Cc1ccccc1Cl (stereo not drawn)	-4%	-2%	0.9%	-3
Cc1ccc2c(COC(=O)C3CSC4(C)CCC(=O)N34)cc(=O)oc2c1C (stereo not drawn)	nt	-6%	-4.0%	nt
Cc1ccc(C(=O)NCC(=O)OC2CCCCC2=O)cc1C (stereo not drawn)	nt	4%	?	nt
Cc1ccc(S(=O)(=O)N2CCCCCC2)cc1C(=O)NCc1ccccn1	-1%	-18%	5.0%	nt
CC/C(=N\NC(=O)C1CCCC1)c1cccc(Br)c1	-16%	-8%	-0.3%	nt
Cc1cccc(NC(=O)CNC(=O)Cn2ncc(Cl)c(Cl)c2=O)c1C	nt	1%	-4.6%	nt
OCCC1CN(Cc2cccc3c2OCO3)CCN1C1CCCC1 (stereo not drawn)	-5%	-14%	-4.5%	-23
O=C(Cc1csc(NC(=O)Nc2ccc(Cl)cc2)n1)NC1CCCC1	nt	1%	-3.0%	nt
O=c1[nH]cnc(O)c1Nc1cccc(Cl)c1	nt	6%	-3.0%	nt

Brought forward from above: 5 compounds; new compounds follow.
SMILES	miR-21 reporter	Rango release inh	Rango complex inh	GLA inh pH 4.5
CC/C(=N\NC(=O)C1CCCC1)c1cccc(Br)c1	-16%	-8%	-0.3%	nt
Cc1cccc(NC(=O)CNC(=O)Cn2ncc(Cl)c(Cl)c2=O)c1C	nt	1%	-4.6%	nt
OCCC1CN(Cc2cccc3c2OCO3)CCN1C1CCCC1 (stereo not drawn)	-5%	-14%	-4.5%	-23
O=C(Cc1csc(NC(=O)Nc2ccc(Cl)cc2)n1)NC1CCCC1	nt	1%	-3.0%	nt
O=c1[nH]cnc(O)c1Nc1cccc(Cl)c1	nt	6%	-3.0%	nt
O=C(NC(NC(=S)Nc1c(Cl)cccc1Cl)C(Cl)(Cl)Cl)c1cccc([N+](=O)[O-])c1 (stereo not drawn)	?	-16%	-1.8%	-11
Cc1cccc(C(=O)NN/C=C/C(=O)c2ccccc2)c1	-7%	-18%	?	nt
O=C(CCCN1C(=O)[C@H]2CC=CC[C@H]2C1=O)NCc1nc(-c2ccccc2)no1	-5%	-1%	-3.9%	nt
Cc1ccc(CN(C)C(=O)c2ccc(S(=O)(=O)N(C)c3ccccc3)cc2)o1	nt	1%	1.1%	nt
CN(Cc1cccnc1)C(=O)c1cc(COc2ccc3c(c2)CCCC3)on1	-15%	9%	-1.2%	nt
Cc1ccc2oc3nc(C)c(C(=O)O)cc3c(=O)c2c1	-37%	-15%	-1.9%	-23
CC(=O)c1ccc(-c2ccc(C(=O)N3CCN(c4ccc(F)cc4)CC3)o2)cc1	7%	-3%	1.5%	-15
Cc1cccc(NC(=O)c2ccc(S(=O)(=O)N3CCCC3)cc2)c1C	-1%	0%	-0.5%	nt
CCNC(=O)CC1C(=O)N(c2ccc(F)cc2)C(=O)N1Cc1cccs1 (stereo not drawn)	-1%	-20%	-6.9%	1
O=C(Nc1ccc2c(c1)OCCO2)C(=S)NCc1ccccc1	-47%	0%	-0.7%	-9
O=C(COc1ccccc1Cl)N1CCN(c2ccc([N+](=O)[O-])c(N3CCOCC3)c2)CC1	0%	14%	6.2%	-16
O=C(CN1CCOCC1)Nc1ncc(Cc2ccccc2Cl)s1	-1%	10%	-1.1%	1
O=C(CSCc1c(F)cccc1Cl)Nc1ccccc1C(=O)N1CCOCC1	-1%	2%	-2.0%	2
COC(=O)c1ccc2[nH]ccc2c1	-25%	-9%	-3.0%	nt
CCc1ccccc1NC(=O)CSc1nc2ccccc2nc1N1CCOCC1	-1%	24%	1.3%	nt

Structures above containing a COOH group:
SMILES	miR-21 reporter	Rango release inh	Rango complex inh	GLA inh pH 4.5
O=C(O)c1cc(S(=O)(=O)NCCN2CCNC2=O)ccc1O	-12%	1%	-2.8%	nt
Cc1ccc2oc3nc(C)c(C(=O)O)cc3c(=O)c2c1	-37%	-15%	-1.9%	-23

Next part.
SMILES	miR-21 reporter	Rango release inh	Rango complex inh	GLA inh pH 4.5
COc1ccc(Cl)cc1NC(=O)c1ocnc1C	-9%	-4%	4.2%	-6
O=C(c1cc(C2CC2)on1)N1CCOCC1	-11%	19%	-0.4%	7
CCOC(=O)[C@H]1[C@H]2COc3ccc(Cl)cc3[C@@H]2N2C(=O)[C@H](C)NC(=O)[C@@]12C	nt	11%	-4.2%	nt
O=c1c(Cc2ccc(F)cc2)c(O)ccn1CCCN1CCOCC1	3%	-2%	5.6%	-2
NC(=O)NC(CC(=O)NNC(=O)c1cccs1)c1ccc(Cl)cc1 (stereo not drawn)	nt	2%	-2.2%	nt
O=C(O)CC(CNS(=O)(=O)c1ccccc1)c1ccccc1 (stereo not drawn)	-4%	-8%	-0.2%	-12
O=S(=O)(c1ccc(Cl)nc1)N1CCCC1	nt	12%	-3.7%	nt
C=CCC(=O)NC1CCCc2c1cnn2-c1cc(F)cc(F)c1 (stereo not drawn)	-8%	18%	-0.3%	nt
Cc1ccc(O)c(C(=O)C=Cc2ccccc2)c1	nt	1%	2.2%	nt
O=C(Cc1ccc(S(=O)(=O)N2CCOCC2)s1)Nc1cc(Cl)ccc1Cl	nt	-20%	-6.2%	nt
CC(=O)Nc1cccc(NC(=O)c2ccc3[nH]c(C)c(C)c3c2)c1	-31%	2%	1.2%	nt
O=c1c2c3c(sc2n(CCN2CCCC2)c(=O)n1Cc1ccco1)CCCCC3	-10%	14%	0.0%	-12
C=CCNC(=O)O/N=C/c1csc([N+](=O)[O-])c1	2%	1%	0.6%	-1
O=C(c1cc(Cl)ccc1[N+](=O)[O-])n1cnc2ccccc21	28%	0%	0.5%	-3
O=C(O)/C=C/C(=O)NC1CC1	2%	-9%	-0.8%	-2

Complete entries, looked up by structure. Order of values: miR-21 reporter, Rango release inh, Rango complex inh, GLA inh pH 4.5
O=C(c1cc(Cl)ccc1[N+](=O)[O-])n1cnc2ccccc21 is listed as 28%, 0%, 0.5%, -3
C=CCNC(=O)O/N=C/c1csc([N+](=O)[O-])c1 is listed as 2%, 1%, 0.6%, -1

Going on with the list.
SMILES	miR-21 reporter	Rango release inh	Rango complex inh	GLA inh pH 4.5
CS(=O)(=O)N1CCc2cc(C(=O)Nc3ccccc3)ccc21	0%	6%	-3.2%	1
CC1CC(C)CN(CCCNC(=O)c2ccc3nc(N4CCOCC4)sc3c2)C1 (stereo not drawn)	-4%	55%	-0.7%	nt
CN(C)CC(O)COc1cc2ccccc2cc1C(=O)N1CCCCC1 (stereo not drawn)	-2%	-6%	2.2%	-1
CCN(CC)CCOc1cccc(C(C)C)c1	-7%	2%	-0.3%	0
O=C(CSc1nncs1)N1c2ccccc2Sc2ccccc21	-6%	4%	-6.4%	-11
C#CCSc1ncc(S(=O)(=O)c2ccccc2)c(=O)[nH]1	6%	21%	-4.5%	-7
O=C(NNC(=O)c1ccccc1O)c1ccccc1O	nt	1%	3.0%	nt
COc1ccc(N2C(=O)N3[C@H](c4ccc(Cl)cc4)[C@@H]4C(=O)N(C5CCCCC5)C(=O)[C@@H]4[C@]3(C)C2=O)cc1	3%	0%	-0.3%	nt
COc1ccc(/C=N/NC(=O)Cc2ccc(Cl)cc2)cc1OC	-25%	1%	0.4%	-1
N#C/C(=N\Nc1cccc(C(F)(F)F)c1)C(=O)c1ccsc1	20%	40%	?	-8
CCn1cc(C(C)(C)C)c(C#N)c1NC(C)=O	-8%	-7%	0.2%	4
O=C(Nc1ccccn1)c1ccc(Br)s1	-35%	-3%	-3.1%	nt
Cc1ccc2c(c1)C1CN(C)CCC1N2S(=O)(=O)c1ccc(Oc2ccc([N+](=O)[O-])cc2)cc1 (stereo not drawn)	16%	-5%	1.7%	-10
C=CCn1c(N)c(C(=O)Nc2ccccc2OC)sc1=S	-26%	-18%	-2.3%	-12
NC(=O)NCCCC(=O)NCC(c1ccccc1Cl)c1c[nH]c2ccccc12 (stereo not drawn)	-3%	15%	0.3%	nt
Cc1ccc(C(=O)N/N=C\c2ccc([N+](=O)[O-])o2)cn1	?	23%	0.7%	-15
CCOc1cc(CNc2ncnc3nc[nH]c23)ccc1OC	-10%	-3%	-1.4%	5
CC(=O)C[C@H]1c2ccccc2S(=O)(=O)N1c1ccccc1	nt	2%	2.1%	nt
CCNC(=O)C/C(C)=N/NC(=O)C1CCCCC1	-13%	-9%	-3.4%	-5
CC(C)(C)c1ccc(C(=O)COC(=O)CN2C(=O)NC3(CCCC3)C2=O)cc1	0%	0%	-0.3%	nt
CCN(Cc1ccccc1)C(=O)CC1Oc2ccccc2NC1=O (stereo not drawn)	-6%	3%	?	-3
COc1ccc(S(=O)(=O)N2CCCCCC2)cc1C(=O)OCC(=O)NC(C)(C)C	-3%	2%	-0.3%	-5
Cc1nn(CCC(=O)O)c(C)c1C	-8%	-4%	3.5%	-4
CCCCCCC(=O)Nc1ccc(S(=O)(=O)Nc2onc(C)c2C)cc1	nt	0%	6.9%	nt
O=S(=O)(CCc1ccccc1)/N=C/c1cccs1	-1%	21%	-0.8%	12
O=C(O)c1ccccc1C(=O)OCc1c(-c2ccccc2)ncc2ccccc12	nt	10%	4.8%	nt
COc1cccc(NC(=O)CSc2nnc(-c3cc(C)n(-c4ccccc4)c3C)o2)c1	-14%	-13%	3.4%	-1
CCOC(=O)C1CCN(C(=O)C2CCCN(c3ncnc4c3nc3n4CCCCC3)C2)CC1 (stereo not drawn)	-1%	-9%	0.0%	nt
